NS1 function inh: blocks influenza NS1 protein function; Potency, µM (doses to about 46.1 µM), inactives show at the highest dose activity, positive = more growth; 0.4% of 270,000 active; S. cerevisiae slowed by influenza A NS1, growth recovery by OD600; AID 2326; further: actives are rising curves; nearly all actives have a fitted effect of over 50% in size
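Read-out: OD600 growth recovery of NS1-expressing budding yeast. Cells grown overnight at 30C in -URA glucose medium, washed, resuspended and diluted 1:100 in 2% galactose assay medium, pH 6.0. Same strain lacking NS1 served as positive control.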
Cruzain inh Det: blocks cruzain activity in presence of Triton detergent; P25779; purified cruzain, Z-FR-AMC fluorescence, 0.01% Triton; Potency, µM, inactives show max response, negative = inhibition, actives largely listed as inhibitors; 0.43% of 200,000 active; active means well fitted curve in the direction sought with a large enough effect; inconclusive means small, poorly fitted or top-dose-only effect, or another doubt; inactive means no such curve, though single readings can be large; an effect the other way counts as inactive or inconclusive;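 further: plate controls were neutral wells for no effect and buffer without enzyme for full effect; nearly all actives have a fitted effect of over 40% in size; top concentration of the series not given in the record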
Target sequence (P25779 123-467 limits assumed): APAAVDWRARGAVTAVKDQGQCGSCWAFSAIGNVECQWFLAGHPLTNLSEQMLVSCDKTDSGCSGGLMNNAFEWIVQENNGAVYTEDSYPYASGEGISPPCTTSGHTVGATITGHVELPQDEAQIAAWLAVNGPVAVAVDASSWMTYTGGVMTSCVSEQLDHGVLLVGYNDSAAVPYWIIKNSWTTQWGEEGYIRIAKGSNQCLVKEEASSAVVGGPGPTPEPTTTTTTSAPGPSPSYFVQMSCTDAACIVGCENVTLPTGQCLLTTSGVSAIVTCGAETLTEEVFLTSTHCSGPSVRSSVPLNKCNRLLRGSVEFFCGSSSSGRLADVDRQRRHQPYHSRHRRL
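15 min RT preincubation of 1.5 nM cruzain with compound, then 2 uM Z-FR-AMC added; kinetic AMC fluorescence, 60 s delta. Triton X-100 0.01%, pH 5.5.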
2A StopGo: lowers the luciferase signal of an FMDV 2A StopGo reporter; human cells with a luciferase reporter of 2A StopGo recoding; control for the full effect not named in the record; Potency, µM (doses to about 57.9 µM), without a hit: top-dose signal change, negative = less light; 1.2% of 410,000 active; AID 1159524; active = well fitted falling curve with a large enough effect; inconclusive = small, poorly fitted or top-dose-only effect; inactive = no such curve, though single readings can be large or run the other way; tested in HEK293T cells; further: on the % scale 0 is the no-effect control and ±100 the full control effect; nearly all actives have a fitted effect of over 45% in size; luciferase light after 4 h
Lassa entry inh: inhibitors of Lassa virus binding or cell entry; Potency, µM (series often up to 37.9 µM), inactives show at the top dose activity change, negative = inhibition, most hits filed as inhibitors; Lassa virus pseudotype entry inhibition, cell reporter; control for the full effect not named in the record; 1.2% of 300,000 active; active means well fitted inhibition curve with a large enough effect; inconclusive means small, poorly fitted or top-dose-only effect, or effect the other way; inactive means flat fitted curve, though single readings scatter; tested in HEK293 cells; further: on the % scale 0 is the no-effect control and ±100 the full control effect; nearly all actives have a fitted effect of over 50% in size; luciferase read-out
Cruzain inh noDet: inhibitors of Trypanosoma cruzi cruzain without detergent; AID 1476; 2.3% of 200,000 active; Potency, µM, for the others: max response, negative = inhibition, hits mostly inhibitors; purified cruzain, Z-FR-AMC fluorescence, no detergent; P25779; active means well fitted curve in the direction sought with a large enough effect; inconclusive means small, poorly fitted or top-dose-only effect, or another doubt; inactive means no such curve, though single readings can be large; an effect the other way counts as inactive or inconclusive;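 further: plate controls were enzyme without inhibitor for no effect and buffer without enzyme for full effect; nearly all actives have a fitted effect of over 40% in size; top concentration of the series not given in the record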
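Purified cruzain at 1.5 nM, pre-incubated 15 min with compound at room temperature in 100 mM sodium acetate pH 5.5, 5 mM DTT, 0.00005% Triton X-100. Reaction started with 2 uM Z-FR-AMC; AMC fluorescence increase over 60 s gives rate.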
MARV entry inh: inhibitors of Marburg virus binding or cell entry | Marburg virus pseudotyped entry inhibition, cell reporter; control for the full effect not named in the record; about a third of the inactives were read at about 46 µM | Potency, µM (doses to about 37.8 µM), without a hit: at the highest dose activity change, negative = inhibition, hits mostly inhibitors | 1.8% of 300,000 active; active = well fitted inhibition curve with a large enough effect; inconclusive = small, poorly fitted or top-dose-only effect, or effect the other way; inactive = flat fitted curve, though single readings scatter; tested in HEK293 cells; about a fifth of its hits are not listed in these tables; further: on the % scale 0 is the no-effect control and ±100 the full control effect; luciferase read-out
RE007 growth inh: less growth of the S. pombe RE007 Vpr strain. S. pombe RE007 Vpr strain, BacTiter-Glo ATP luminescence, 24 h; control for the full effect not named in the record. 0.21% of 360,000 active. Potency, µM (top dose mostly 92.2 µM), without a hit: at the highest dose activity change, negative = less growth; active = well fitted falling curve with a large enough effect; inconclusive = small, poorly fitted or top-dose-only effect; inactive = no such curve, though single readings can be large or run the other way;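 further: on the % scale 0 is the no-effect control and ±100 the full control effect; nearly all actives have a fitted effect of over 50% in size; the assay follows cell death caused by Vpr and the record does not say whether a fall means rescue or toxicity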
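Fission yeast RE007 carrying one integrated HIV-1 vpr copy, seeded at OD 0.01 in PMG+AL medium with 23 nL pinned compound. Grown 24 h at 30 degrees; viability read by BacTiter-Glo luminescence after 5 min.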
SARS PLP yeast: SARS-CoV PLP inhibition in yeast. S. cerevisiae expressing SARS-CoV PLpro, growth rescue; control for the full effect not named in the record. Potency, µM (highest dose often 32.9 µM), for the others: at the highest dose activity, positive = growth rescue. 0.19% of 330,000 active; further: 0% is about no effect; nearly all actives have a fitted effect of over 55% in size; growth read by luminescence after 48 h
The depositor's hits bear a star; ? = inconclusive; nt = not tested or not shown; [ ] = another dose, or the depositor's remark. Unless noted, the call rests on the fitted dose curve; in most records, active means well fitted rising curve with a large enough effect; inconclusive means small, poorly fitted or top-dose-only effect; inactive means no such curve, though single readings can be large or run the other way. Potency means the concentration at half of the fitted maximal effect.

SMILES	NS1 function inh	Cruzain inh Det	2A StopGo	Lassa entry inh	Cruzain inh noDet	MARV entry inh	RE007 growth inh	SARS PLP yeast
Oc1c(Br)cc(Br)c(/C=N/n2c(-c3ccccc3)n[nH]c2=S)c1Br	-71.1%	nt	-21.1%	7.4%[46.1 µM]	nt	?	12.4%	-16.0%
Cn1c(SSc2ccc(-c3cccnc3)n2C)ccc1-c1cccnc1	nt	nt	?	?	nt	12.6µM*	-10.3%	nt
O=c1ccc(=O)n(CCc2ccccn2)[nH]1	nt	nt	-4.5%	7.6%	nt	0.1%	6.1%	nt
COc1ccc(CCn2nnc(-c3ccc(NC(C)=O)c(Cl)c3)n2)cc1	?	-0.7%	20.1%	5.7%	-24.6%	-1.6%[46.1 µM]	-25.7%	1.3%
COc1ccc(NS(=O)(=O)c2cc(-c3onc(C)c3C)ccc2C)c(OC)c1	nt	-2.6%	3.2%	?	17.1%	nt	nt	nt
CCOC(=O)CCn1cnc2onc(-c3cc(OC)ccc3Cl)c2c1=O	nt	-1.9%	5.7%	-9.3%[46.1 µM]	-1.1%	-0.8%[46.1 µM]	nt	nt
CCS(=O)(=O)N1CCc2cc(C(=O)NCc3ccc(OC)cc3)ccc21	nt	-2.9%	-2.7%	4.9%[46.1 µM]	-7.6%	-17.2%[46.1 µM]	nt	nt
CS(=O)(=O)N1CCN(C(=O)c2cccnc2)CC1	-7.5%	0.8%	nt	11.7%	10.6%	3.3%	5.2%	4.0%
C=CCn1c(C)cc(C(=O)COC(=O)CCc2cc(OC)c(OC)c(OC)c2)c1C	nt	nt	0.0%	9.4%	nt	0.9%	5.8%	-10.9%
O=C(c1cc(-c2ccccc2Cl)nc2ccccc12)N1CCC1	nt	nt	-2.4%	-0.5%	nt	-10.4%	11.9%	5.6%
CNc1c(NS(=O)(=O)c2ccc(F)c(Cl)c2)c(=O)oc2ccccc12	0.0%	nt	-12.7%	-5.5%	nt	-21.9%	2.6%	1.5%
Cn1cc(/C=C2\SC(=O)N(c3ccc(O)cc3)C2=O)c2ccccc21	-2.3%	nt	-20.0%	nt	nt	nt	-1.2%	-2.2%
c1ccc(CNc2ncnc3nc[nH]c23)nc1	-55.2%	-0.1%	5.0%	nt	4.2%	nt	11.2%	11.5%
Cc1cc(NS(=O)(=O)c2ccc(NC(=O)CSc3nc4ncccc4[nH]3)cc2)nc(C)n1	-12.5%	nt	0.6%	nt	nt	nt	-13.9%	-0.4%
Cc1cc(C(=O)OCC(=O)Nc2cccc(S(N)(=O)=O)c2)c(C)o1	nt	nt	8.2%	2.4%	nt	-12.4%	19.1%	-0.1%
COc1cccc(C(=O)/C=C/c2ccc(N3CCCCC3)c([N+](=O)[O-])c2)c1	-1.5%	-4.8%	?	-5.2%	6.3%	7.3%	-14.6%	0.8%
CC(CCC(=O)O)C1CC[C@@]2(C)C3C(=O)CC4C(C)(C)C(O)CC[C@]4(C)C3C(=O)C[C@]12C (stereo partly drawn)	18.8%	nt	-6.8%	28.6%[46.1 µM]	nt	11.3%[46.1 µM]	6.0%	-2.8%
CCC(=O)Nc1ccc(C(=O)OCc2ccccc2)cc1	nt	nt	29.6%	16.4%[46.1 µM]	nt	?	8.3%	-4.4%
Cn1c(=O)c2ccccc2n2c(CCl)nnc12	9.5%	nt	-27.3%	?	nt	-16.0%[46.1 µM]	-22.1%	-12.1%
CCOC(=O)c1c(-c2ccc(C)o2)csc1NC(=O)COC(=O)c1ccc(NC(N)=O)cc1	11.0%	-3.9%	?	-15.1%	-27.2%	?	1.8%	14.7%
CCC(C(=O)NC(C)(C)C)N(Cc1ccco1)C(=O)CNS(=O)(=O)c1ccc(OC)cc1 (stereo not drawn)	-0.6%	nt	20.7%	-1.7%[46.1 µM]	nt	-4.9%[46.1 µM]	-15.2%	-3.0%
O=C(OCc1nc2ccccc2s1)c1ccccc1O	nt	nt	25.7%	3.8%	nt	20.5%[46.1 µM]	-10.6%	-1.5%
Cc1ccc(NC(=O)COC(=O)c2ccc(Cl)cc2)cc1S(=O)(=O)N(C)C	5.9%	nt	30.1%[activator]	0.2%	nt	0.6%	-6.7%	2.2%
CN1CCC/C1=C1/C(=O)N(c2ccccc2)N=C1NC(=O)Nc1cccc(Cl)c1	1.0%	nt	-9.0%	-4.5%	nt	4.3%	7.4%	1.5%
O=C(CSCc1cccc(Cl)c1)NCc1ccc2c(c1)OCO2	-22.7%	-2.3%	5.1%	-8.8%	-5.1%	1.0%	-10.4%	2.1%
Cc1ccc(S(=O)(=O)NCC(=O)Nc2cccc([N+](=O)[O-])c2)cc1	3.3%	nt	23.8%	-15.6%	nt	-0.2%[46.1 µM]	3.3%	0.5%
CSCCC(NS(=O)(=O)/C=C/c1ccccc1)C(=O)O (stereo not drawn)	nt	nt	-10.3%	-10.4%[46.1 µM]	nt	1.0%[46.1 µM]	-0.5%	0.1%
c1ccc2c(c1)OCCOCCOc1ccccc1OCCOCCO2	-48.5%	-2.1%	-21.4%	-2.3%	-3.0%	?	-13.5%	-34.2%
c1ccc(CCNc2ncnc3scc(C4COc5ccccc5O4)c23)cc1 (stereo not drawn)	9.4%	-4.9%	28.2µM*	-27.1%	7.1%	-9.2%	-8.3%	-6.0%
COc1ccc(C(=O)Nc2nnc(S(=O)(=O)N(CC(C)C)c3ccc(C)cc3)s2)cc1OC	nt	-4.0%	?	?	13.3%	nt	nt	nt
COc1ccc(C2CC(O)(c3ccccc3)Oc3cc(OC)c(OC)c(OC)c32)cc1 (stereo not drawn)	4.9%	nt	6.2%	nt	nt	nt	-17.6%	-18.2%
CCN(CC)C(=O)C(=O)N/N=C/c1ccc(C(=O)OC)cc1	-4.7%	-0.2%	61.1%[activator]	3.0%	-0.3%	7.6%	8.2%	10.1%
Cc1ccc(S(=O)(=O)N2CC(=NN=C(N)N)C2)cc1	-3.5%	nt	-1.8%	-2.0%	nt	-12.4%[46.1 µM]	4.4%	0.8%
c1ccc2c3c([nH]c2c1)C1(CCCCC1)NCC3	0.7%	nt	-19.9%	nt	nt	nt	-1.2%	1.8%
CCOC(=O)c1ccccc1NC(=O)COC(=O)CSCC(=O)Nc1cc(C)on1	nt	nt	-2.9%	9.6%	nt	23.4%	1.9%	3.8%
O=C(O)CCCCCNC(=O)/C=C/c1ccco1	0.6%	nt	-0.3%	15.7%[46.1 µM]	nt	?	0.0%	1.0%
O=S(=O)(c1cc(Cl)ccc1Cl)n1ccnc1	0.1%	nt	5.1%	15.3%	nt	20.4%[46.1 µM]	6.2%	5.1%
COC(=O)Cn1c(CN2CCN(c3ccc(F)cc3)CC2)nc2c1c(=O)n(C)c(=O)n2C	-38.7%	0.9%	?	nt	16.5%	0.3%	-4.4%	-2.9%
CCN(Cc1ccccc1)S(=O)(=O)c1c(C(=O)N2CCCC2)c(C)n(C)c1C	4.1%	nt	15.1%	20.2%[46.1 µM]	nt	-6.5%[46.1 µM]	-7.0%	9.8%
COCCNc1oc(-c2ccc(F)cc2)nc1C#N	-1.7%	-1.9%	50.6%[activator]	?	0.5%	?	6.7%	-1.7%
COc1ccccc1C1CN=NC12CCCc1ccccc1C2=O (stereo not drawn)	1.9%	-2.8%	?	-0.9%	6.5%	-8.0%	-25.3%	-4.3%
CC(C)/C=N/Nc1nc(-c2ccc(Br)cc2)cs1	20.0%	-11.0%	25.7%	5.8%	-25.9%	?	24.4%	-19.8%
C=C(C)CSc1nc(N)cc(=O)[nH]1	3.3%	0.3%	-15.0%	13.6%	-1.0%	-2.6%	5.8%	1.8%
OC1(c2ccc(F)cc2)CC2CCC(C1)N2Cc1nnnn1C1CCCC1 (stereo not drawn)	-4.3%	-1.3%	-0.3%	-25.5%	-1.8%	-0.9%	-12.9%	-4.0%
COCC(C)NCc1cc(Br)ccc1OC (stereo not drawn)	nt	nt	5.2%	-13.7%	nt	-2.6%[46.1 µM]	4.2%	-6.7%
CCCC(C)C1(CC)C(=O)NC(=Nc2ccccc2)NC1=O (stereo not drawn)	-15.7%	-0.9%	-16.9%	3.6%	-9.7%	?	16.8%	11.0%
Cc1cc(OCc2ccccc2)ccc1/C(O)=C1/C(=O)C(=O)N(Cc2cccnc2)C1c1ccncc1 (stereo not drawn)	-0.2%	nt	7.9%	7.5%	nt	27.8%[46.1 µM]	9.2%	0.3%
COC(=O)C(C)Oc1cc(OC(C)C(=O)OC)c2c(-c3ccccc3)cc(=O)oc2c1 (stereo not drawn)	3.7%	nt	-15.0%	-24.0%	nt	5.1%	1.5%	-0.2%
CCCN1CCC(=O)N([C@H](CO)Cc2ccccc2)CC1	-4.0%	nt	-12.7%	nt	nt	nt	-11.4%	-9.2%
O=C(CSc1nc(-c2ccccc2)nc2c1Cc1ccccc1O2)Nc1ccccc1	-4.3%	9.1%	nt	nt	25.1µM*	nt	nt	4.7%
CCCCc1cc(=O)oc2cc(OCC(=O)NCc3ccccn3)ccc12	0.4%	nt	-15.3%	-16.5%[46.1 µM]	nt	22.8%[46.1 µM]	10.5%	9.3%

As entered above:
CCOC(=O)c1ccccc1NC(=O)COC(=O)CSCC(=O)Nc1cc(C)on1 @ SARS PLP yeast: 3.8%
CCOC(=O)CCn1cnc2onc(-c3cc(OC)ccc3Cl)c2c1=O @ Cruzain inh noDet: -1.1%
COc1ccc(NS(=O)(=O)c2cc(-c3onc(C)c3C)ccc2C)c(OC)c1 @ Cruzain inh noDet: 17.1%
Cc1ccc(NC(=O)COC(=O)c2ccc(Cl)cc2)cc1S(=O)(=O)N(C)C @ MARV entry inh: 0.6%

Reformatted: results already given
smiles,NS1 function inh,Cruzain inh Det,2A StopGo,Lassa entry inh,Cruzain inh noDet,MARV entry inh,RE007 growth inh,SARS PLP yeast
O=S(=O)(c1cc(Cl)ccc1Cl)n1ccnc1,0.1%,nt,5.1%,15.3%,nt,20.4%[46.1 µM],6.2%,5.1%
COC(=O)Cn1c(CN2CCN(c3ccc(F)cc3)CC2)nc2c1c(=O)n(C)c(=O)n2C,-38.7%,0.9%,?,nt,16.5%,0.3%,-4.4%,-2.9%

Screening data as filed in PubChem.
